# Screening results as filed in PubChem.
# PINK1 expr mod – PINK1 expression modulation; PINK1 immunofluorescence, high-content cytometry, 24 h; Potency, µM (highest dose often 76.6 µM), for the others: top-dose activation (PINK1 increase), actives largely listed as activators; actives 0.2% (n = 410,000); active = well fitted activation curve with a large enough effect; inconclusive = small, poorly fitted or top-dose-only effect; inactive = flat fitted curve, though single readings scatter; cell line not stated here;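 further: potency means the concentration at half of the fitted maximal effect; % of control where 0% means no effect; nearly all actives have a fitted effect of over 65% in size; a mitochondrial uncoupler was the plate control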
#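 A stable cell line was treated with compounds at 5 concentrations for 24 hours, with CCCP as control. PINK1 levels and mitochondrial localization were measured by immunofluorescence with mitochondrial, cell and nuclear markers after fixation, read by laser-scanning cytometry.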
# TRPML1 blocker – human mucolipin-1 channel inhibition. TRPML1-inducible cells, Ca2+ dye fluorescence, FDSS; active compounds read low; inhibition of EC80 agonist-evoked calcium signal. activity change, negative = inhibition, % (concentration not given with the values). actives 0.02% (n = 390,000). AID 624415; in the data active means activity change below about -50%; inconclusive means about -30% to -50%; inactive means above about -30%;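 further: stimulus is agonist 54-4 at its EC80 concentration; on the % scale 0 is the no-effect control and ±100 the full control effect; the text of the record puts the active cut at -80%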
#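 Calcium fluorescence in TRPML1-DL cells induced overnight with Tet: a 110 s read after compound pin addition, then a 110 s antagonist read after challenge with 54-4 at 4 uM final (EC80).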
# TRPML1 ag – agonists of human TRPML1 channel; actives 0.12% (n = 410,000); Q9GZU1; activation, % (test concentration not listed); TRPML1-expressing cells, Ca2+ dye fluorescence, FDSS; host cell line not named in the record; reference of the full effect not given here; AID 624414; in the data active = activation above about 50%; inconclusive = about 30% to 50%; inactive = below about 30%; further: 0% is about no effect; the text of the record puts the active cut at 80%
#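 Tet-induced TRPML1-DL cells, 1,500 per well, cultured overnight, were loaded with a no-wash Ca2+ dye for 45–90 min. Calcium fluorescence was recorded on the FDSS for 110 s after compound addition, before the EC80 agonist (4 uM 54-4) was added.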
# Six1-Eya2 blk – inhibitors of human Six1/Eya2 interaction. AlphaScreen GST-Six1/His-Eya2 binding, biochemical; active compounds read low; control for the full effect not named in the record. activity change, % (test concentration not listed). actives 0.56% (n = 360,000). Q15475+O00167; in the data active = activity change below about -65%; inconclusive = about -30% to -65%; inactive = above about -30%; further: on the % scale 0 is the no-effect control and ±100 the full control effect
# Target sequence (O00167 whole entry, looked up): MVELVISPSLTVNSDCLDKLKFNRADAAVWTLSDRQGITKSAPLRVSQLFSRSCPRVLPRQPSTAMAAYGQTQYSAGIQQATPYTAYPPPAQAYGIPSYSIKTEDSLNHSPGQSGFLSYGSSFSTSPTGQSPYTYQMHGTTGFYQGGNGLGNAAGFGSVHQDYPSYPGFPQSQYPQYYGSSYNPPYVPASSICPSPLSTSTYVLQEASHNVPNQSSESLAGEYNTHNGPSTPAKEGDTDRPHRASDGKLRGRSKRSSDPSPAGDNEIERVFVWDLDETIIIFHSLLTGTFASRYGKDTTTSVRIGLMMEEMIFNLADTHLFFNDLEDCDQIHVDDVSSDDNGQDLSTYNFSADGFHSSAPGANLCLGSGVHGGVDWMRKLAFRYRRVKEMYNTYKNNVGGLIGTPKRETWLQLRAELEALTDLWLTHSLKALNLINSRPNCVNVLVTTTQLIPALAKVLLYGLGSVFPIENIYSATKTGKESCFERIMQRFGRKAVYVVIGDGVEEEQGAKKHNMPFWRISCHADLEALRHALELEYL
# Target sequence (Q15475 whole entry, looked up): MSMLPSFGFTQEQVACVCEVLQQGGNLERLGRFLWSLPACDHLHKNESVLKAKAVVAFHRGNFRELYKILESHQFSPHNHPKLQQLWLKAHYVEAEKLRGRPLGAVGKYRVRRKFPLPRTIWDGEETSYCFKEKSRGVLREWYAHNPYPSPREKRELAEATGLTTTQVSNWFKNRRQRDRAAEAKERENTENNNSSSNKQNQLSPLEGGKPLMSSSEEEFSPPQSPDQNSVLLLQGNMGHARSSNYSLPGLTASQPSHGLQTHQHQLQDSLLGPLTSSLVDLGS
#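 AlphaScreen luminescence read after one hour at 37 °C in darkness. Pin-transferred compounds met GST-Six1 and His-Eya2 protein (5X stock 250 nM/500 nM) plus glutathione donor and Ni-chelate acceptor beads (5X, 50 ug/mL).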
# D2 PAM – human D2 receptor positive allosteric modulation; DiscoveRx D2 beta-arrestin cells, luminescence, 90 min; 100% = 57 uM dopamine signal; potentiation, % (no concentration beside the values); actives 0.23% (n = 360,000); P14416; active = potentiation of 50% or more; inconclusive = 30% to 50%; inactive = 30% or less;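 further: compound concentration not given in the record; tested on top of an EC20 dose of dopamine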
#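 PathHunter beta-arrestin assay in DiscoveRx D2 cells. Compounds were added with an EC20 of dopamine (50 nM final) for 90 min at 37 deg C. Luminescence was read 1 h after detection reagent, with 57 uM dopamine as the EC100 control.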
# D2 ag – human D2 receptor agonism in beta-arrestin assay; AID 624465; DiscoveRx PathHunter D2 beta-arrestin, luminescence, 90 min; 100% = 57 uM dopamine signal; actives 0.084% (n = 360,000); P14416; activation, % (concentration not given with the values); in the data active = activation above about 40%; inconclusive = about 15% to 40%; inactive = below about 15%; further: compound concentration not given in the record; the text of the record calls up to 30% inactive
#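 DiscoveRx PathHunter D2 beta-arrestin cells (2,100/well) attached overnight, then compound-stimulated 90 min at 37 C in HBSS/10 mM HEPES/0.1% Tween-20 buffer; beta-galactosidase complementation read by luminescence after 1 h at ambient temperature. Dopamine 57 uM final (EC100) as control.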
# Starred values were filed as active, the others as inactive; ? = inconclusive; / = no result given; & = joins results of further samples; [ ] = another dose, or the depositor's remark.
SMILES,PINK1 expr mod,TRPML1 blocker,TRPML1 ag,Six1-Eya2 blk,D2 PAM,D2 ag
O=Cc1ccc(N2CCCCCC2)cc1,0.0%,-23,1.4,14,-13,0.2
CCC(C)Nc1nc(Cl)nc(NCCOc2ccccc2)n1 (stereo unspecified),5.2%,-11,4.5,-7,3,1.6
Cc1nc2ccccc2c2oc(C(=O)NCCCN3CCC(C)CC3)cc12,0.8%,9,-0.3,-17,-14,-4.5
N#Cc1c(C(F)(F)F)cc(Cc2ccccc2)nc1SCC(=O)NCC(=O)O,1.6%,1,-0.1,6,-3,-7.1
CCOc1ccc(N(C)S(=O)(=O)c2ccc(C)c(C(=O)NCc3cccs3)c2)cc1,-0.5%,14,2.7,-1,-3,-1.6
CC1(C)CC(N=C2C([N+](=O)[O-])=CC=C3C2=NC2(CCCCC2)N3O)CC(C)(C)N1,-0.7%,-18,-0.6,-15,6,3.0
Cc1ccccc1OCC(=O)Nc1ccc2nc(SCCOc3ccccc3)sc2c1,8.5%,18,-0.1,/,/,/
COC(=O)CC1C(=O)NCCN1C(=S)NC(=O)CCc1ccccc1 (stereo unspecified),2.0%,?,0.0,25,-1,-1.4
CCN1CCN(c2ccc(S(=O)(=O)N3CCCCC3)cc2NC(=O)c2cccc(NC(C)=O)c2)CC1,-0.6%,-8,0.4,2,-18,-3.9
O=C1C(=O)N(CC2CCCO2)C(c2ccccc2[N+](=O)[O-])/C1=C(/O)c1ccccc1 (stereo unspecified),-0.8%,10,1.6,11,-24,-1.2

# Part of the list above, field by field:
O=C1C(=O)N(CC2CCCO2)C(c2ccccc2[N+](=O)[O-])/C1=C(/O)c1ccccc1 (stereo unspecified)
  PINK1 expr mod: -0.8%; TRPML1 blocker: 10; TRPML1 ag: 1.6; Six1-Eya2 blk: 11; D2 PAM: -24; D2 ag: -1.2

N#Cc1c(C(F)(F)F)cc(Cc2ccccc2)nc1SCC(=O)NCC(=O)O
  PINK1 expr mod: 1.6%; TRPML1 blocker: 1; TRPML1 ag: -0.1; Six1-Eya2 blk: 6; D2 PAM: -3; D2 ag: -7.1

CCC(C)Nc1nc(Cl)nc(NCCOc2ccccc2)n1 (stereo unspecified)
  PINK1 expr mod: 5.2%; TRPML1 blocker: -11; TRPML1 ag: 4.5; Six1-Eya2 blk: -7; D2 PAM: 3; D2 ag: 1.6

# Structures above with an aryl thioether with sulfur outside any ring:
SMILES,PINK1 expr mod,TRPML1 blocker,TRPML1 ag,Six1-Eya2 blk,D2 PAM,D2 ag
N#Cc1c(C(F)(F)F)cc(Cc2ccccc2)nc1SCC(=O)NCC(=O)O,1.6%,1,-0.1,6,-3,-7.1
Cc1ccccc1OCC(=O)Nc1ccc2nc(SCCOc3ccccc3)sc2c1,8.5%,18,-0.1,/,/,/

# Part of the list above, limited to D2 ag, TRPML1 blocker and Six1-Eya2 blk.
SMILES,D2 ag,TRPML1 blocker,Six1-Eya2 blk
CCC(C)Nc1nc(Cl)nc(NCCOc2ccccc2)n1 (stereo unspecified),1.6,-11,-7
Cc1nc2ccccc2c2oc(C(=O)NCCCN3CCC(C)CC3)cc12,-4.5,9,-17
N#Cc1c(C(F)(F)F)cc(Cc2ccccc2)nc1SCC(=O)NCC(=O)O,-7.1,1,6
CCOc1ccc(N(C)S(=O)(=O)c2ccc(C)c(C(=O)NCc3cccs3)c2)cc1,-1.6,14,-1
CC1(C)CC(N=C2C([N+](=O)[O-])=CC=C3C2=NC2(CCCCC2)N3O)CC(C)(C)N1,3.0,-18,-15

# Following part:
SMILES,PINK1 expr mod,TRPML1 blocker,TRPML1 ag,Six1-Eya2 blk,D2 PAM,D2 ag
CCN(Cc1ccccc1)C(=O)CN1C(=O)NC2(CC(C)CC(C)(C)C2)C1=O (stereo unspecified),-0.2%,4,1.1,-4,-9,0.3
NC(=O)c1ccsc1NC(=O)CCc1ccccc1,2.8%,1,0.2,-3,-1,-2.0
CCNC(=O)O/N=C1\CCCCC1c1ccc([N+](=O)[O-])cc1[N+](=O)[O-] (stereo unspecified),-0.7%,/,/,-19,13,?
COC(=O)c1cc(C)nc(N)c1C#N,2.5%,4,-2.1,3,-6,-0.3
O=C(Nc1ccc(NC(=O)c2ccco2)nc1)c1cccc(F)c1,13%,-1,0.0,-6,-1,2.6
O=C(Cn1cc(C(F)(F)F)ccc1=O)NCc1ccc(F)cc1,1.7%,16,-0.3,-6,-8,-1.0
CCCCOCCCN1CC(=O)N2[C@@H](Cc3c([nH]c4ccccc34)C2(C)C)C1=O,3.7%,-6,-2.0,0,-4,5.5
CCc1nc2ccc(C(=O)NCc3ccc(OC)cc3)cn2c1N(CC)Cc1cccc(Br)c1,0.1%,/,-0.5,0,-10,-2.9
CCCCOc1nnc(-c2ccc(OCC)cc2)c2ccccc12,2.3%,-1,-1.3,/,/,/
COC(=O)c1cc(Br)c(=O)n(-c2ccccc2OC)c1,-2.2%,25,-0.4,7,3,-1.1
O=C(CNC(=O)c1ccccc1Br)N/N=C/c1ccco1,4.7%,-10,-1.1,-1,-2,-6.7
O=C1C2C3C=CC(C3)C2C(=O)N1/N=C/c1cn(Cc2ccc(F)cc2)c2ccccc12 (stereo unspecified),-1.3%,-2,1.0,-1,-13,-2.9
OC(c1ccc(Cl)cc1Cl)C(Cc1cccnc1)n1cncn1 (stereo unspecified),-2.8%,-8,-0.8,-1,-3,-2.2
O=C(O)C1C2CCC(C2)C1C(=O)NCCc1ccc(F)cc1 (stereo unspecified),1.7%,-1,-0.1,5,-4,1.2
COc1ccc(OCCCCc2c(C)n[nH]c2C)cc1,2.4%,-6,1.7,1,2,1.6
Cc1cccn2cc(-c3ccc(S(=O)(=O)N4CCOCC4)cc3)nc12,0.9%,9,-1.7,-2,13,0.8
CC1(C)CC(=NO)CC(C)(C)N1,1.3%,-9,0.4,3,1,0.8
COc1cccc2c3c(c(C)nc12)CCN3c1ccccc1,1.8%,-8,-1.5,3,-3,-3.8
COc1ccc(NC(=O)C(NCC(C)C)c2ccccc2)cc1Cl (stereo unspecified),4.0%,11,1.8,-1,-17,1.7
Cc1cccc(-c2csc(NC(=O)c3cnccn3)c2C(=O)OC(C)C)c1,10%,-3,-0.9,8,-1,-0.8
CC(=O)c1ccc(S(=O)(=O)Nc2ccc(-c3ccc4nncn4n3)cc2)cc1,-0.6%,-20,0.3,-8,3,3.6
Cc1ccc2[nH]cc(C(=O)CN3CCN(C)CC3)c2c1,-8.7%[38.3 µM],-5,0.9,4,-14,-0.1
COc1ccc2oc(C(=O)OCc3nnc(-c4ccccc4)o3)c(C)c2c1,15%,-6,0.7,6,3,1.1
O=C(Nc1ccccc1)NC1CCN(Cc2c(F)cccc2Cl)CC1,-0.9%,-16,0.3,-13,-22,1.7
Cc1cc2ncn(CCCCOc3ccccc3)c2cc1C,4.1%,3&31,3.7&1.4,1,-9,0.9
Cc1cc(-c2ccc(S(=O)(=O)Nc3ccc(C#N)cc3)s2)on1,-1.3%,-6,-0.3,0,-4,-3.5
CN1CCN(/C=N/C2=C(C#N)C(c3ccccc3)C3=C(CC(C)(C)CC3=O)O2)CC1 (stereo unspecified),3.0%,-18,2.5,8,-18,-0.9
Cc1cc(C)cc(C(=O)NCC(=O)OCc2c(C)noc2C)c1,1.3%,9,-0.6,1,2,-7.7
COc1ccc(CNC(=O)C2(CC3CC(c4ccccc4)=NO3)CCN(C(=O)Cc3ccc(F)cc3)CC2)cc1 (stereo unspecified),-0.9%,-1,1.3,-11,0,-0.4
OC(COc1ccc2cc(Br)ccc2c1)CN1CCOCC1 (stereo unspecified),0.0%,7,1.9,5,-15,-2.0
O=S1(=O)CCN(C(CO)c2ccccc2)CC1 (stereo unspecified),-0.7%,5,0.2,1,-1,1.7
Cc1cc(=O)[nH]c(SCC(=O)Nc2nc3ccccc3s2)n1,1.6%,18,0.2,0,-3,-6.8
COc1cc2c(cc1NC(=O)CN1CCN(S(=O)(=O)c3ccccc3F)CC1)oc1ccccc12,3.5%,-9,-0.7,-2,-13,-1.7
CC1CCCCC1NC(=O)CSc1nc2ccccc2[nH]1 (stereo unspecified),1.6%,-5,-0.4,3,-1,-3.4
C[C@@H]1C[C@H]2[C@@H]3CCC4=CC(=O)C=C[C@]4(C)[C@@]3(F)[C@@H](O)C[C@]2(C)[C@@]1(O)C(=O)COP(=O)(O)O,0.6%,-14,-0.3,10,/,/
Cc1sc2nc(CSCC(=O)Nc3ccc(OC(F)F)cc3)[nH]c(=O)c2c1C,1.3%,-5,0.9,-1,-13,-1.8
O=C(Nc1cccc(S(=O)(=O)C(F)F)c1)c1ccc(S(=O)(=O)N2CCOCC2)cc1,-1.9%,10,-0.2,3,-17,-1.0
COC(=O)c1cc2oc3ccccc3c2n1Cc1nc(-c2cccc(C)c2)oc1C,-0.4%,13,-0.3,/,/,/
CCN(CC(=O)N1CCOCC1)S(=O)(=O)c1ccccc1,-0.2%,23,0.1,2,-8,-2.1
O=C(NCCc1ccc(Cl)cc1)C1CCN(S(=O)(=O)c2ccc(-n3cnnn3)cc2)CC1,1.0%,-6,1.9,-2,-9,-1.4
CC1CCCC(NC(=O)COC(=O)c2cccc(NS(=O)(=O)/C=C/c3ccccc3)c2)C1C (stereo unspecified),15%,-19,3.2,-2,25,1.6
CCOc1ccc(C2c3c(oc4ccc(C)cc4c3=O)C(=O)N2c2nc(C)c(C)s2)cc1OC (stereo unspecified),-0.4%,15,0.2,/,/,/
COCCCNC(=O)c1ccc2c(c1)nc(C)n2-c1cccc(C)c1,8.6%&-0.7%,-8&-18,0.8&0.0,20,1,8.8
Cc1c(Cl)ccc2sc(NC(=O)C3CC3)nc12,8.4%,2,2.4,5,-1,-2.8
Cc1cc(C)c(N=C2CCCN2Cc2ccccc2)c(C#N)c1,0.1%,45,2.2,22,-25,0.4
C/C(=N\NC(=O)CN1CCN(Cc2ccccc2)CC1)c1ccncc1,-0.2%,-6,0.7,4,-3,-1.1
O=C(CCC1CCCN(C(=O)Cc2ccc(F)cc2)C1)N1CCN(c2ccccn2)CC1 (stereo unspecified),0.1%,3,1.0,2,-1,-0.4
CCOC(=O)C1=CCN(S(=O)(=O)c2cccc(Cl)c2)C1c1ccccc1 (stereo unspecified),1.0%,/,1.6,12,1,2.1
CN(Cc1nccn1C)C(=O)c1cc(COc2ccc3ncccc3c2)on1,1.8%,-27,-0.2,0,0,2.0
O=C(COC(=O)C1CC2CCCC(C1)C2=O)NC(=O)c1ccccc1 (stereo unspecified),1.5%,-7,-0.7,8,2,-2.6
# (further entries)
SMILES,PINK1 expr mod,TRPML1 blocker,TRPML1 ag,Six1-Eya2 blk,D2 PAM,D2 ag
O=C(Nc1nnc(SCc2cccnc2)s1)C1CC(=O)N(c2ccc(F)cc2)C1 (stereo unspecified),-1.5%,7,0.0,-4,0,-2.8
COc1cccc(N2CCN(C(=O)c3cccc(NC4=NC5CS(=O)(=O)CC5S4)c3)CC2)c1 (stereo unspecified),0.3%,-15,-0.3,-1,4,-2.5
Cc1ccccc1-c1oc(C)c(C)[n+]1[O-],-0.8%,18,-1.1,-2,-12,-1.0
CCCN1CCN(CCCNC(=O)c2cc3c(=O)n(C)c4ccccc4c3n2C)CC1,1.6%,2,1.1,1,-11,-2.6
Cc1cccc(-c2cc(NC(=O)COc3ccccc3F)n(-c3ccccc3)n2)c1,0.3%,23,-0.6,/,/,/
